Env fusion inh: HIV envelope-mediated fusion inhibition. inhibition, % at 12.3 µM. HeLa-JRFL Env/CEM21 cell fusion, luciferase. actives 1.1% (n = 360,000);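 active means mean replicate inhibition score of at least 50 and every replicate individually at or above 50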;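 further: 0% = plate neutral controls and 100% = maraviroc near 300 nM; one replicate is shown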
PABP polyA inh: blocks human PABP binding to poly(A) RNA; fluorescence polarization; AID 2014; actives 1% (n = 290,000); inhibition, % at 35 µM; P11940;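 active means 50% or more with normal probe brightness, or confirmed in later tests; about a fifth of its hits are not listed in these tables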;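 further: calls also rest on retests at 20 µM and on dose response follow-up; controls were probe without protein and protein plus probe with vehicle; some compounds called inactive have numbers as strong as hits; many hits fall short of the cut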
Target sequence (P11940 whole entry, looked up): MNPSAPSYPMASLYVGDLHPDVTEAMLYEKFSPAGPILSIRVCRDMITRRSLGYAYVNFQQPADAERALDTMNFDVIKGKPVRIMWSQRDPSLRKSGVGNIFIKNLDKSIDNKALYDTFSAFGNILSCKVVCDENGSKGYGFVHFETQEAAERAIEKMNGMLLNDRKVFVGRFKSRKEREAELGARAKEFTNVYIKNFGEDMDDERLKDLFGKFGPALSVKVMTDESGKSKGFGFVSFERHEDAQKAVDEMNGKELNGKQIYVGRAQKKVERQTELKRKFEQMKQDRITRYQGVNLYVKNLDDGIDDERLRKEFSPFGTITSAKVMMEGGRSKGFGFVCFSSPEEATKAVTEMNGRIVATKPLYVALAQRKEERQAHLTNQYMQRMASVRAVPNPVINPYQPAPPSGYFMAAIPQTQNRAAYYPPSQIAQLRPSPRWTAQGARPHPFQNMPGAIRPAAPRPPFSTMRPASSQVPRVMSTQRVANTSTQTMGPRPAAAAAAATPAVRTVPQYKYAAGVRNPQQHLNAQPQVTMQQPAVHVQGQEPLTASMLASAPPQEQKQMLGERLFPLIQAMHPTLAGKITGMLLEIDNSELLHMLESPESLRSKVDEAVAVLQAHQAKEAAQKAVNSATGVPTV
eIF4H inh: inhibitors of RNA binding by human eIF4H. eIF4H fluorescence polarization binding assay. actives 0.94% (n = 290,000). inhibition, % at 35 µM. Q15056. AID 2012;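 active means 50% or more with normal probe brightness, or confirmed in later tests; about a fifth of its hits are not listed in these tables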;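 further: calls also rest on retests at 20 µM and on dose response follow-up; 0% = protein and probe with vehicle and 100% = probe without protein; strong numbers were not always called active; many hits fall short of the cut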
CSC inhib: cancer stem cell inhibition. actives 1.1% (n = 300,000). AID 2717. cancer stem cell-like cells viability, luminescence. inhibition, % at 7.5 µM;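 active means mean at 75% or more and at least half the replicates too; tested in HMLE shEcad cells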;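 further: 0% = median of negative and 100% = median of positive control wells; the first replicate is given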
Rce1 inh: blocks yeast Ras-converting enzyme; yeast membranes, quenched prenylated peptide cleavage fluorescence; calls only; actives 0.27% (n = 290,000); AID 2563;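 active means fall in fluorescence gain of 50% or more versus controls, with final raw signal at or below 3038400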;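 further: plate controls were neutral control wells for no effect and wells lacking membranes for full effect; tested at 10 µM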
Target sequence (Q03530 whole entry, looked up): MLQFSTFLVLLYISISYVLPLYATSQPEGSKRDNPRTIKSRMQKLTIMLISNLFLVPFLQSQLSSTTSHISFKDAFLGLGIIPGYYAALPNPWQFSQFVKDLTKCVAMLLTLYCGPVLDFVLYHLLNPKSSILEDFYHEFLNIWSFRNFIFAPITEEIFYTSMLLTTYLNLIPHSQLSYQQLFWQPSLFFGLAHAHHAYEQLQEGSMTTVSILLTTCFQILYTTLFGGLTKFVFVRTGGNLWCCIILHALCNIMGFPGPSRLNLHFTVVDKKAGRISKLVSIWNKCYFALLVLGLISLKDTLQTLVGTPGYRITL
MT1-MMP act inh: blocks activation of human MT1-MMP | P50281 | HT1080 RFP-PRO-GFP cells, GFP/RFP ratio fluorescence, overnight; percent of plate control window, DMSO zero | GFP/RFP ratio change, % at 20 µM | actives 0.061% (n = 360,000) | AID 651647;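 active means GFP/RFP ratio change of at least 30% with cell ATP level not reduced by more than half and red fluorescence within 50% of control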; further: strong numbers were not always called active
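Assay system – RFP-PRO-GFP reporter HT1080 cells · Compound dosing – single dose of 20 µM compound, 1% DMSO final · Incubation – overnight compound exposure at 37 °C · Measure – GFP/RFP fluorescence ratio · Benchmarks – DMSO wells and RFP-L50D-GFP cells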
UUG fidelity: alters start codon recognition fidelity in yeast; S. cerevisiae UUG-firefly luciferase reporter, luminescence/redox ratio; activity score, % at 18.7 µM; actives 0.13% (n = 350,000);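 active means replicate mean at a twofold rise or more, about +100% in these data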;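 further: firefly luciferase made from a UUG start codon reports start codon fidelity; reporter light over untreated wells divided by growth signal over untreated wells; some hits fall short of that in this replicate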
eIF4H inh retest: further read-out of eIF4H inh, marked with its call; inhibition, %; compound at 20 µM; confirmation average;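 mean of two retest wells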
PABP polyA inh retest: further read-out of PABP polyA inh, marked with its call; inhibition, %; compound at 20 µM; confirmation repeats;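 mean of two retest wells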
MT1-MMP act inh RFP: further read-out of MT1-MMP act inh, marked with its call; RFP signal change, %; measured here: RFP expression control read;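 0 = vehicle wells; hits needed this value within 50% of zero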
* marks the source's active call; other numbers are inactive results.

Results for NC(=O)c1ccc(-c2noc(-c3cccc(Cl)c3)n2)cc1 ?
Env fusion inh: -136; CSC inhib: -4; MT1-MMP act inh: -1; UUG fidelity: -5; MT1-MMP act inh RFP: -1

How did CC(=O)Nc1ccc2nc(NC(=O)c3ccc([N+](=O)[O-])s3)sc2c1 do in these assays?
PABP polyA inh: -48; eIF4H inh: 12; CSC inhib: 32; Rce1 inh: inactive

How did O=[N+]([O-])c1ccc(C2CCCC/C2=N\OCc2cccc(F)c2)c([N+](=O)[O-])c1 (stereo unspecified) do in these assays?
Env fusion inh: 85*; PABP polyA inh: -5; eIF4H inh: -3; CSC inhib: 20; Rce1 inh: inactive; MT1-MMP act inh: -9; UUG fidelity: 4; MT1-MMP act inh RFP: -4

Results for O=C1Nc2cc(Cl)cnc2N2CCCC12 (stereo unspecified) ?
Env fusion inh: -17; PABP polyA inh: -18; eIF4H inh: 61*; CSC inhib: 2; Rce1 inh: inactive; MT1-MMP act inh: -3; UUG fidelity: -6; eIF4H inh retest: 89*; PABP polyA inh retest: 41; MT1-MMP act inh RFP: 6

What do the screens show for `Fc1ccc(CO/N=C/C2=C(Cl)c3ccccc3CC2)cc1`?
PABP polyA inh: 1; eIF4H inh: -12; CSC inhib: 2; Rce1 inh: inactive; MT1-MMP act inh: 4; MT1-MMP act inh RFP: -2

Results for Cc1cc(C)n(-c2ccccc2[N+](=O)[O-])n1 ?
Env fusion inh: 3; PABP polyA inh: 4; eIF4H inh: 5; CSC inhib: 14; Rce1 inh: inactive; MT1-MMP act inh: 6; MT1-MMP act inh RFP: 6

What do the screens show for `CC1(C)CC(=O)C2=C(C1)NC1=C(C(=O)c3ccccc31)C2c1cc([N+](=O)[O-])ccc1O` (stereo unspecified)?
Env fusion inh: -161; PABP polyA inh: 6; eIF4H inh: 3; CSC inhib: -11; Rce1 inh: inactive; MT1-MMP act inh: 8; MT1-MMP act inh RFP: -8

Results for O=C(COc1ccc(S(=O)(=O)N2CCOCC2)cc1)NCCCn1ccnc1 ?
Env fusion inh: 11; PABP polyA inh: -6; eIF4H inh: -8; Rce1 inh: inactive; MT1-MMP act inh: -3; UUG fidelity: -17; MT1-MMP act inh RFP: 0

What do the screens show for `O=C(c1cccc2ccccc12)C1CCCN(C(=O)c2ccc(N3CCOCC3)cc2)C1` (stereo unspecified)?
Env fusion inh: 21; PABP polyA inh: 10; eIF4H inh: 0; CSC inhib: -2; Rce1 inh: inactive; MT1-MMP act inh: -4; UUG fidelity: 14; MT1-MMP act inh RFP: -16

Results for NNC(=O)c1[nH]c2ccc([N+](=O)[O-])cc2c1-c1ccccc1 ?
Env fusion inh: -5; PABP polyA inh: 2; eIF4H inh: -6; CSC inhib: 8; Rce1 inh: inactive; MT1-MMP act inh: 0; UUG fidelity: -15; MT1-MMP act inh RFP: 1

What do the screens show for `O=[N+]([O-])c1ccccc1Nc1c2ccccc2nc2ccccc12`?
Env fusion inh: 62*; PABP polyA inh: 10; eIF4H inh: -7; CSC inhib: -2; Rce1 inh: inactive; MT1-MMP act inh: 7; MT1-MMP act inh RFP: -8

Results for COc1ccccc1NC(=O)c1ccc(NC2=NC3CS(=O)(=O)CC3S2)cc1 (stereo unspecified) ?
Env fusion inh: -23; PABP polyA inh: 8; eIF4H inh: 0; Rce1 inh: inactive; MT1-MMP act inh: -1; UUG fidelity: -12; MT1-MMP act inh RFP: 1

How did Cn1c(=O)c2cc(S(=O)(=O)N3CCC(c4ccccc4)CC3)ccc2n(C)c1=O do in these assays?
PABP polyA inh: -6; eIF4H inh: -1; CSC inhib: 6; Rce1 inh: inactive; MT1-MMP act inh: 7; UUG fidelity: -8; MT1-MMP act inh RFP: -1

How did COc1ccccc1CCc1nnc(CCC(=O)N(C)Cc2cccc3ncccc23)o1 do in these assays?
Env fusion inh: 3; PABP polyA inh: 5; eIF4H inh: -6; CSC inhib: -16; Rce1 inh: inactive; MT1-MMP act inh: 1; MT1-MMP act inh RFP: -4

Results for COc1ccc(C2=NC(=O)/C(=C\c3cc(OC)c(OC)c(OC)c3)O2)cc1 ?
Env fusion inh: 5; PABP polyA inh: -6; eIF4H inh: -6; CSC inhib: -2; MT1-MMP act inh: 0; MT1-MMP act inh RFP: -1

How did CCC(CC)c1nnc(NC(=O)CSCC(=O)Nc2cc(C)on2)s1 do in these assays?
CSC inhib: -12; Rce1 inh: inactive; MT1-MMP act inh: 2; UUG fidelity: -22; MT1-MMP act inh RFP: 2

Results for O=S(=O)(c1ccccc1Cl)N1CCC(Cc2ccccc2)CC1 ?
Env fusion inh: 27; PABP polyA inh: -11; eIF4H inh: 16; CSC inhib: -2; Rce1 inh: inactive; MT1-MMP act inh: 3; UUG fidelity: -4; MT1-MMP act inh RFP: 9

What do the screens show for `COc1ccc(CN(C)C(C)C(=O)Nc2ccc(S(=O)(=O)N3CCCCC3)cc2)c(OC)c1` (stereo unspecified)?
Env fusion inh: 21; CSC inhib: 0; MT1-MMP act inh: 3; UUG fidelity: 20; MT1-MMP act inh RFP: 1

What do the screens show for `CCCN1CCN(C(=O)c2ccc(S(=O)(=O)N(C)c3ccccc3OC)cc2)CC1`?
Env fusion inh: -2; MT1-MMP act inh: 2; UUG fidelity: -10; MT1-MMP act inh RFP: 5

What do the screens show for `O=C(Nc1cccc([N+](=O)[O-])c1)c1ccc2nc(N3C(=O)CCC3=O)sc2c1`?
Env fusion inh: -290; PABP polyA inh: 0; eIF4H inh: -4; CSC inhib: -10; Rce1 inh: inactive; MT1-MMP act inh: 13; UUG fidelity: -12; MT1-MMP act inh RFP: 3

Results for CC1C/C(=N/Nc2nc3ccccc3[nH]2)CC(C)(C)C1 (stereo unspecified) ?
Env fusion inh: 4; PABP polyA inh: 4; eIF4H inh: 10; CSC inhib: -8; Rce1 inh: inactive; MT1-MMP act inh: 9; MT1-MMP act inh RFP: 6

How did C=CCn1c(COc2cccc(C)c2)nnc1SC(C)C(=O)NC1CC1 (stereo unspecified) do in these assays?
Env fusion inh: 9; CSC inhib: -16; MT1-MMP act inh: 0; UUG fidelity: -8; MT1-MMP act inh RFP: -2

Results for O=C(O)CC/C(=C\c1ccc(N2CCCC2)c([N+](=O)[O-])c1)c1nc2ccccc2s1 ?
Env fusion inh: 1; PABP polyA inh: 12; eIF4H inh: 44; CSC inhib: 27; Rce1 inh: inactive; MT1-MMP act inh: 3; MT1-MMP act inh RFP: 1

How did O=C(NCCNC(=O)c1ccccc1Cl)c1ccco1 do in these assays?
Env fusion inh: -8; PABP polyA inh: 0; eIF4H inh: -11; CSC inhib: -4; Rce1 inh: inactive; MT1-MMP act inh: 4; UUG fidelity: -10; MT1-MMP act inh RFP: 8

Results for COc1ccc(NC(=O)CCNC(=O)Cn2cnc3ccccc3c2=O)c(OC)c1 ?
Env fusion inh: 0; PABP polyA inh: -5; eIF4H inh: 2; CSC inhib: 9; Rce1 inh: inactive; MT1-MMP act inh: -1; UUG fidelity: -11; MT1-MMP act inh RFP: 2

Results for Cc1cccc(NCC(=O)N/N=C\c2cccn2C)c1 ?
Env fusion inh: -4; PABP polyA inh: 40; eIF4H inh: 83; Rce1 inh: inactive; MT1-MMP act inh: 4; UUG fidelity: -18; eIF4H inh retest: -11; PABP polyA inh retest: 5; MT1-MMP act inh RFP: 1

What do the screens show for `Cn1ncc2c(=O)n(CC(=O)NC34CC5CC(CC(C5)C3)C4)cnc21`?
PABP polyA inh: -2; eIF4H inh: -3; CSC inhib: -17; MT1-MMP act inh: 4; UUG fidelity: -5; MT1-MMP act inh RFP: 7

What do the screens show for `O=C1CC[C@@H](O)CCN1CC[C@H](Sc1ccccc1)c1ccccc1`?
Env fusion inh: -8; PABP polyA inh: 3; eIF4H inh: 3; CSC inhib: -8; Rce1 inh: inactive; MT1-MMP act inh: 9; UUG fidelity: -16; MT1-MMP act inh RFP: 6

What do the screens show for `Cc1ccc(OCc2nnc(NC(=O)c3ccco3)s2)c(C)c1`?
PABP polyA inh: 5; eIF4H inh: 2; Rce1 inh: inactive; MT1-MMP act inh: 5; UUG fidelity: -45; MT1-MMP act inh RFP: 2

Results for Oc1ccc(C(=S)N2CCCCC2)cc1 ?
PABP polyA inh: -5; eIF4H inh: 3; CSC inhib: 17; Rce1 inh: inactive; MT1-MMP act inh: 1; UUG fidelity: -16; MT1-MMP act inh RFP: -2

Results for NC(=O)CSc1nnc(-c2cc3ccccc3o2)n1Cc1ccccc1 ?
PABP polyA inh: 0; eIF4H inh: -7; CSC inhib: 15; Rce1 inh: inactive; MT1-MMP act inh: 2; UUG fidelity: -29; MT1-MMP act inh RFP: -4

Results for Cc1ccc2c(C)c(C(=O)NCc3ccc(S(N)(=O)=O)cc3)oc2c1 ?
Env fusion inh: 14; PABP polyA inh: 8; eIF4H inh: 7; CSC inhib: 2; Rce1 inh: inactive; MT1-MMP act inh: -4; MT1-MMP act inh RFP: -14

What do the screens show for `Cc1cc(C)nc(N2CCCC(C(=O)NCCc3ccc(F)cc3)C2)n1` (stereo unspecified)?
Env fusion inh: -28; PABP polyA inh: -4; eIF4H inh: 2; CSC inhib: -2; Rce1 inh: inactive; MT1-MMP act inh: -2; UUG fidelity: 8; MT1-MMP act inh RFP: -4

How did CCOC(=O)C(C)Sc1nnc(Cc2cc(=O)[nH]c(=O)[nH]2)n1-c1cccc(OC)c1 (stereo unspecified) do in these assays?
Env fusion inh: -5; PABP polyA inh: -1; eIF4H inh: -1; CSC inhib: -7; Rce1 inh: inactive; MT1-MMP act inh: 0; UUG fidelity: -13; MT1-MMP act inh RFP: 5

What do the screens show for `CN(Cc1ccc(F)cc1)S(=O)(=O)c1nnc(NC(=O)c2ccccc2Br)s1`?
Env fusion inh: -2; PABP polyA inh: -10; eIF4H inh: -11; CSC inhib: 33; Rce1 inh: inactive; MT1-MMP act inh: -1; UUG fidelity: -16; MT1-MMP act inh RFP: -2

What do the screens show for `CNc1ccc(C(O)(C(F)(F)F)C(F)(F)F)cc1C(O)(C(F)(F)F)C(F)(F)F`?
Env fusion inh: 21; PABP polyA inh: -4; eIF4H inh: 2; CSC inhib: -17; Rce1 inh: inactive; MT1-MMP act inh: 1; UUG fidelity: -12; MT1-MMP act inh RFP: 10

Results for O=C(O)CN1C(=O)C(=O)N(Cc2ccccc2F)C1=O ?
Env fusion inh: 1; PABP polyA inh: 14; eIF4H inh: 5; CSC inhib: -3; Rce1 inh: inactive; MT1-MMP act inh: 1; UUG fidelity: -6; MT1-MMP act inh RFP: 5

Results for C#CCOCCOCCOCCNc1nc(N2CCN(C(=O)[C@H](CCCCN)n3cc(CCCC)nn3)CC2)nc(N2CCN(C(=O)[C@H](CCCCN)n3cc(CCCC)nn3)CC2)n1 ?
Env fusion inh: -12; PABP polyA inh: -8; eIF4H inh: 18; CSC inhib: -2; Rce1 inh: inactive; MT1-MMP act inh: -3; UUG fidelity: 40; MT1-MMP act inh RFP: 3

Results for CC(=O)c1ccc([C@H]2C[C@@]34CN(C(=O)OC(C)(C)C)S(=O)(=O)[C@H]3C[C@H]2O4)cc1 ?
Env fusion inh: 68*; PABP polyA inh: 11; eIF4H inh: -6; CSC inhib: 21; Rce1 inh: inactive; MT1-MMP act inh: 6; UUG fidelity: -5; MT1-MMP act inh RFP: 2

Quoted at random: 2 entries already listed, in no set order.
What do the screens show for `Cc1cc(C)nc(N2CCCC(C(=O)NCCc3ccc(F)cc3)C2)n1` (stereo unspecified)?
Env fusion inh: -28; PABP polyA inh: -4; eIF4H inh: 2; CSC inhib: -2; Rce1 inh: inactive; MT1-MMP act inh: -2; UUG fidelity: 8; MT1-MMP act inh RFP: -4

Results for Oc1ccc(C(=S)N2CCCCC2)cc1 ?
PABP polyA inh: -5; eIF4H inh: 3; CSC inhib: 17; Rce1 inh: inactive; MT1-MMP act inh: 1; UUG fidelity: -16; MT1-MMP act inh RFP: -2

Bioassay records: PubChem BioAssay, several laboratories
